# SmPrx2 inh: inhibitors of Schistosoma mansoni peroxiredoxin 2; S. mansoni Prx2 activity coupled to TGR/GSH (TGR is thioredoxin glutathione reductase), NADPH fluorescence loss, qHTS; some inactives read as strong as hits; Potency, µM; 65,000 compounds, 0.07% hits; AID 448; active means full or partial inhibition curve with a strong effect at the top dose; inconclusive means weaker partial or single-point curve; inactive means no accepted curve; further: series up to 57 µM; many of its hits are not listed in these tables
#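 qHTS, coupled TGR/Prx2 format; 15 min compound preincubation at RT; reaction started with H2O2 (2.5 mM aliquot); kinetic NADPH fluorescence decrease, ex 365/em 450 nm.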
# LT uptake inh: anthrax lethal toxin internalization inhibition. Cells, anthrax lethal toxin internalization, FRET ratio (460/530). Potency, µM (doses to about 40 µM), for inactives: at the highest dose activity change, negative = inhibition, actives largely listed as inhibitors. 70,000 compounds, 0.67% hits. AID 912; active = well fitted falling ratio curve with the 530 nm signal flat; inconclusive = other ratio curves, or a change in one channel alone; inactive = flat curves in the ratio and both channels; the % refers to the ratio; further: on the % scale 0 is the no-effect control and ±100 the full control effect; nearly all actives have a fitted effect of over 50% in size; tested in ME-180 cells; beta-lactamase reporter
# The depositor's hits bear a star; ? = inconclusive; . = no result given; [ ] = remark or other dose. Potency means the concentration at half of the fitted maximal effect. Some of the compounds tested; count on the stated rates, not on these rows.
SMILES,SmPrx2 inh,LT uptake inh
Cc1[nH]nc2c1C(c1ccccn1)N(c1ccc(Br)cc1)C2=O (stereo not given),>57,-8.6%
Cc1cc(C)c2c(CN3CCN(C/C=C/c4ccccc4)CC3)cc(=O)oc2c1,>57,-17.2%
Cc1cccc(-c2noc(CN(C(=O)c3c(-c4ccccc4Cl)noc3C)C(C)C)n2)c1,>57,?
O=C(CSc1ncccn1)NCc1ccc(F)cc1,>57,?
Cn1ncc2c(Nc3ccc(-c4ccccc4)cc3)ncnc21,>57,?
CC(C)CC(=O)N1CCN(S(=O)(=O)c2ccc(F)cc2)CC1,>57,-6.1%
COCCNC(=O)CN(C(=O)Cn1nnc2ccccc21)c1ccccc1,>57,-8.1%
Nc1c[n+](N2CCOCC2)no1,>57,?
O=C(Nc1nn[nH]n1)c1cccc(Oc2ccccc2)c1,>57,4.2%
CCOC(=O)C1CCN(C(=O)CCCCn2c(=O)[nH]c3ccccc3c2=O)CC1,>57,13.5%
CN(C(=O)c1cccc(C#N)c1)c1nnc(C2CCCO2)s1 (stereo not given),>57,-17.0%
Cn1[nH]c(=O)c2ccccc2c1=O,>57,2.8%

# Exported with each value named: part of the list above
compound: O=C(CSc1ncccn1)NCc1ccc(F)cc1
  SmPrx2 inh: >57; LT uptake inh: ?
compound: Cc1cc(C)c2c(CN3CCN(C/C=C/c4ccccc4)CC3)cc(=O)oc2c1
  SmPrx2 inh: >57; LT uptake inh: -17.2%
compound: Nc1c[n+](N2CCOCC2)no1
  SmPrx2 inh: >57; LT uptake inh: ?
compound: CCOC(=O)C1CCN(C(=O)CCCCn2c(=O)[nH]c3ccccc3c2=O)CC1
  SmPrx2 inh: >57; LT uptake inh: 13.5%

# Following part:
SMILES,SmPrx2 inh,LT uptake inh
COc1ccc(OCC(=O)Nc2ccccc2C(=O)N2CCCC2)cc1,>57,?
Cc1c(C(=O)OCC2CCCO2)[nH]c2c1C(=O)CC(c1ccc(N(C)C)cc1)C2 (stereo not given),>57,?
CCCCCn1c(CN2CC(C)OC(C)C2)nc2c1c(=O)n(C)c(=O)n2C (stereo not given),>57,?
Nn1c(SCC(=O)Nc2ccc(F)cc2F)nnc1-c1cccnc1,>57,?
Nc1c(C(=O)OCC2CCCO2)c2nc3ccccc3nc2n1C1CCCCC1 (stereo not given),>57,2.8%
O=C(NC1CCCC1)C1CCCN1S(=O)(=O)c1cccc2cccnc12 (stereo not given),>57,-4.9%
CC(C)(C)NC(=O)CN(C(=O)C1CSC(=O)C1)c1ccc2c(c1)OCCO2 (stereo not given),>57,?
O=C(Nc1cc(Cl)ccc1N1CCOCC1)c1cnccn1,>57,-5.9%
ClC(Br)Br,.,4.1%
CC(=O)N(Cc1ccccc1)c1ncc2c(n1)c(=O)c(C#N)c1ccccn12,>57,.
c1ccc(-c2nnnn2CCOCCn2nnnc2-c2ccccc2)cc1,>57,0.5%
CCNc1ncc2nc(-c3cn(C)c4ccccc34)c(=O)n(Cc3cccc(OC)c3)c2n1,>57,?
COCCN(CC(=O)Nc1ccccc1)S(=O)(=O)c1ccc(S(=O)(=O)N2CCCC2)cc1,>57,1.0%
O=c1c2c3nc4ccccc4nc3n(-c3ccc4c(c3)OCCO4)c2ncn1C1CCCC1,>57,29.5%
Cc1nc(N2CCc3ccccc3C2)[nH]c(=O)c1CCC(C)C,>57,-1.4%
CCOC(=O)C1=C(C)NC(=O)NC1c1ccc(OCCO)c(OC)c1 (stereo not given),.,-4.1%
COC(=O)c1ccc(NC(=O)NS(=O)(=O)c2ccc(C)cc2)cc1,.,5.9%
OCc1n[nH]c(CO)n1,>57,-2.9%
O=C(Nc1cc2nn(-c3ccccc3)nc2cc1Cl)c1ccco1,>57,0.5%
COC(=O)Nc1nnc(Cc2ccc(OC)cc2)s1,>57,-6.6%
CC(=O)C1C2c3ccccc3OC1(C)N=c1s/c(=C/c3cnn(C)c3)c(=O)n12 (stereo not given),>57,8.1%
CC(C(=O)OCc1nnc(-c2ccccc2)o1)N1C(=O)c2ccccc2C1=O (stereo not given),>57,2.0%
CCOc1ccccc1-n1c(COc2ccc(C)cc2)nnc1SCC(N)=O,>57,-5.7%
Cn1nnnc1SCC(=O)c1c(N)n(C)c(=O)n(C)c1=O,>57,5.5%
COc1ccc(N2CCN(C(=O)Cn3nnc(-c4cccs4)n3)CC2)cc1,>57,-7.8%
O=C(NCc1ccc(N2CCCC2=O)cc1)c1cn(CCc2ccccc2)nn1,>57,0.7%
COc1ccc(C2/C(=C(\O)c3cc(C)ccc3C)C(=O)C(=O)N2CCN(C)C)cc1OC (stereo not given),>57,-2.1%
CN(CCCNC(=O)CN1C(=O)CC(C)(C)S(=O)(=O)c2ccccc21)C1CCCCC1,>57,-15.0%
c1cc(-c2nc3ccccc3o2)nc(-c2nc3ccccc3o2)c1,>57,7.1%
Cc1csc2nc(CNC(=O)c3ccco3)cn12,>57,-2.5%
O=C(Cn1ncc2c(=O)oc3ccccc3c21)N(Cc1ccco1)C1CCCCC1,>57,-15.0%
COC(=O)CSc1nnc(-c2ccc(NS(=O)(=O)c3ccccc3)cc2)o1,.,?
c1cc(-c2nc3cc(Oc4ccc5oc(-c6ccncc6)nc5c4)ccc3o2)ccn1,>57,-4.4%
CSc1nnc(CNC(=O)c2ccccc2)n1-c1ccc(F)cc1,>57,1.2%
O=C(c1cnccn1)N1CCC2(CCN(Cc3nccs3)CC2)CC1,>57,?
COc1cccc(C2CC(c3cccc(OC)c3)n3nc(N)nc3N2)c1 (stereo not given),>57,3.5%
COc1ccc(C(=O)NCCn2cc(SCC(=O)Nc3cc(C)on3)c3ccccc32)cc1OC,>57,-3.3%
O=C(c1ccc(CSCc2ccccc2F)o1)N1CCN(c2ccc(N3CCOCC3)nn2)CC1,>57,7.94µM*
CNC(=O)CN(c1cccc2ccccc12)S(C)(=O)=O,>57,7.3%
COc1ccc(C[C@@H]2C(=O)N[C@H](C)C(=O)N(C)[C@@H]3C(=O)N(C)[C@@H](Cc4ccc(O)c(c4)Oc4ccc(cc4)[C@H]3O)C(=O)N[C@@H](C)C(=O)N[C@H](C)C(=O)N2C)cc1,>57,?
C[C@]12C[C@H](O)[C@H]3[C@@H](CCC4=CC(=O)CC[C@@]43C)[C@@H]1CC[C@@H]2C(=O)CO,.,-5.4%
CCOC(=O)N1CCN(c2nc(C(F)(F)F)nc3c(C)cc(C)cc23)CC1,>57,3.1%
COc1cc2c(cc1OC)-c1c(OC)c(OC)c(CO)c3c1[C@H](C2)N(C)CC3,>57,-0.5%
O=C(O)[C@@H]1[C@@H](C(=O)NCc2ccccn2)[C@@H]2C=C[C@@H]1O2,>57,?
COc1cc(S(=O)(=O)N(Cc2cccs2)CC2CCCO2)ccc1-n1cnnn1 (stereo not given),>57,-13.8%
CCOC(=O)c1cc(OC(=O)c2cccnc2)n(-c2ccccc2)n1,>57,-5.6%
Cc1occc1C(=O)Nc1ccccc1NC(=O)c1ccoc1C,>57,?
Oc1ccccc1Nc1nc(NCC2CCCO2)c2ccccc2n1 (stereo not given),>57,-14.8%

# Three structures already listed, arranged by formula weight, highest first.
SMILES,SmPrx2 inh,LT uptake inh
O=C(c1ccc(CSCc2ccccc2F)o1)N1CCN(c2ccc(N3CCOCC3)nn2)CC1,>57,7.94µM*
COc1cc(S(=O)(=O)N(Cc2cccs2)CC2CCCO2)ccc1-n1cnnn1 (stereo not given),>57,-13.8%
COc1cc2c(cc1OC)-c1c(OC)c(OC)c(CO)c3c1[C@H](C2)N(C)CC3,>57,-0.5%

# Grouped by structure: the entries above containing two or more sulfur atoms
SMILES,SmPrx2 inh,LT uptake inh
COCCN(CC(=O)Nc1ccccc1)S(=O)(=O)c1ccc(S(=O)(=O)N2CCCC2)cc1,>57,1.0%
COC(=O)CSc1nnc(-c2ccc(NS(=O)(=O)c3ccccc3)cc2)o1,.,?
COc1cc(S(=O)(=O)N(Cc2cccs2)CC2CCCO2)ccc1-n1cnnn1 (stereo not given),>57,-13.8%

# (more compounds)
SMILES,SmPrx2 inh,LT uptake inh
Cc1cc(C)nc(Sc2c(C)n[nH]c2C)n1,>57,-8.1%
Cc1ccc(N2C(=O)CC(N3CCN(C4CCc5ccccc5C4)CC3)C2=O)cc1 (stereo not given),.,-1.4%
O=C(c1ccc(CNS(=O)(=O)c2ccccc2)cc1)N1CCC2(CC1)OCCO2,>57,11.5%
O=C(CC(CC(=O)c1ccccc1)C(=O)O)c1ccccc1,.,12.2%
Nc1c2c(nc3ccn(-c4ccccc4)c(=O)c13)CCCCC2,>57,.
NC(N)=NNC(=O)C(=O)O,>57,-3.2%[8 µM]
CCn1c(SCC(=O)Nc2ccc(OC)c(OC)c2)nnc1-c1cccs1,>57,-8.8%
COc1ccccc1-c1c(C)nn2c(C)cc(C)nc12,>57,-7.4%
Cn1c(=O)[nH]c(=O)c2c1nc(N1CCCC1)n2CCCSc1nc2ccccc2o1,>57,-6.1%
COc1ccc(CCN2C(=O)c3[nH]nc(-c4ccccc4O)c3C2c2ccc(C)cc2)cc1OC (stereo not given),>57,?
O=[n+]1cc(-c2ccccc2)n([O-])c2c1CCC2,>57,-3.3%
Cc1[nH]c2c(Cl)cccc2c1CCN,>57,13.9%
CC(=O)Nc1nonc1NC(C)=O,>57,6.0%
CCCn1c(-c2ccc(F)cc2)nc2c(NCCN(C)C)nc(C)nc21,.,-23.9%
CC(=O)c1cc(-c2ccc(F)cc2)n(CC(=O)NCc2cccs2)c1C,>57,21.7%
CC(=O)Nc1ccc(SCC(=O)OCC(=O)NC(=O)NCc2ccco2)cc1,>57,-5.0%
CCCCN(C(=O)Cn1nnc2ccccc21)C(C(=O)NCCOC)c1ccc(OC)cc1OC (stereo not given),>57,12.5%
C[C@H](Br)C(=O)N[C@H](CO)C(=O)O,>57,-6.3%[8 µM]
COCCNC(=O)C(c1cccc(OC)c1)N(Cc1cccs1)C(=O)Cn1nnc2ccccc21 (stereo not given),>57,10.9%
CC/C(=N\O)C(C)(C)/[N+]([O-])=C/c1ccc(Br)cc1,.,8.7%
CC1CCN(C(c2ccc(N(C)C)cc2)c2nnnn2C(C)(C)C)CC1 (stereo not given),>57,-4.5%
CCCOc1ccc(N2CC(C(=O)NC(C)C)CC2=O)cc1 (stereo not given),>57,-22.8%
Cc1ccc2nc(-c3ccc(NC(=O)c4ccco4)cc3)[nH]c2c1,>57,-14.4%
COC(C(=O)Nc1cccc(F)c1)c1ccccc1 (stereo not given),.,5.6%
O=C(O)c1ccccc1C1=Nc2ccc(O)cc2Oc2cc(O)ccc21,>57,0.8%
COc1ccc(C[C@@H]2C(=O)N[C@H](C)C(=O)N(C)[C@@H]3Cc4ccc(cc4)Oc4cc(ccc4O)C[C@H](C(=O)N[C@@H](C)C(=O)N[C@H](C)C(=O)N2C)N(C)C3=O)cc1,>57,?
CCn1c(=NC(=O)CSC(C)=O)sc2ccccc21,>57,14.3%
CCCc1nc(SCC(=O)N2CCCC2)c2ccccc2n1,>57,-5.5%
O=C(Nc1ccc2c(c1)oc1ccccc12)C1CC1,>57,-16.4%
COc1ccc(CNc2nc3ccccc3n2CCN2CCCCC2)c(OC)c1,>57,-2.5%
N#Cc1ccc(CN2CCCC3(CCN(C(=O)c4ccncc4)CC3)C2)cc1,>57,-6.3%
CC(C)c1nc(=S)n(-c2ccccc2)[nH]1,>57,2.1%
O=C(O)c1cc(C(=O)O)cc(N2C(=O)c3ccccc3C2=O)c1,>57,6.1%[8 µM]
CCc1ccc2oc(-c3cc(N)cc(C)c3O)nc2c1,>57,2.9%
COc1ccccc1C(=O)OCn1nnc2ccccc2c1=O,>57,23.1%
CN1CCCN(C(=O)c2cc(=O)[nH]c3ccccc23)c2nc3ccccc3nc21,>57,11.9%
CN1CCN(C2=C(Cl)C(=O)N(c3ccc(Cl)c(Cl)c3)C2=O)CC1,.,7.94µM*
CC(=O)c1ccc(NC(=O)N2CCN(c3cccc(Cl)c3)CC2)cc1,>57,?
O=S(=O)(c1cccc(C(F)(F)F)c1)N1CCC(O)(c2cccnc2)CC1,>57,?
CC(=O)N(CN1C(=O)c2ccccc2C1=O)c1cccc(C)c1,>57,-15.1%
Cc1cc(C)c(C(=O)CN2C(=O)CCC2=O)cc1C,>57,11.5%
C=C1CSc2nc(=O)c3c(C)c(C)sc3n21,>57,-0.8%
C[C@@]12C(=O)OC(=O)[C@]1(C)[C@H]1CC[C@@H]2O1,>57,?
CN(C)c1ccc(/C=N\NC(=O)c2cnc3ccccc3c2)cc1,>57,-18.1%[8 µM]
Cc1cc(Nc2ccccc2C(=O)O)nc2nc3ccccc3c(=O)n12,>57,0.8%
CN(c1ccccc1C(N)=O)S(=O)(=O)c1ccccc1,>57,11.8%
CO/N=C(\C)CCN1CCCCc2nc(C)c(C)cc21,.,-1.0%[8 µM]
CC(C)C(c1nnnn1Cc1ccccc1)N(CCCO)Cc1cc2cc3c(cc2[nH]c1=O)OCO3 (stereo not given),>57,-1.5%
CCC(C)c1ccc(O)c(N)c1 (stereo not given),>57,.
COc1ccc(OC)c(C(c2nnnn2C(C)(C)C)N2CCc3ccccc3C2)c1 (stereo not given),>57,-16.0%
CN1C(=O)N(C)C2CC1N(C)C(=O)N2C,>57,-0.5%
Cc1ccc(OCCn2c(C)c(/C=N/n3cnnc3)c3ccccc32)cc1,>57,-7.2%
CCOC(=O)c1c(C)[nH]c(C(=O)COC(=O)c2cn(CC)c3nc(C)ccc3c2=O)c1C,>57,16.3%
O=C(Oc1ccc2ccc(OC(=O)N3CCOCC3)cc2c1)N1CCOCC1,.,?
CCOC(=O)N1CCN(c2nc(C)cc(C(F)(F)F)n2)CC1,>57,-0.3%
